Compound activity as filed in PubChem.
GIV Gai3 FP: GIV-Galpha-i interaction inhibition; P08753; Galpha-i3/FITC-GIV peptide fluorescence polarization, 90 min; active compounds read low; scaled: aluminum fluoride 0%, vehicle 100%; percent of control (FP), % (no concentration beside the values); 0.42% of 210,000 active;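 active means replicate mean at 85% of control or lower, very high polarization wells dropped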;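 further: wells of about 15 µL received 100 nL stock; the first replicate is given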
Target sequence (P08753 whole entry, looked up): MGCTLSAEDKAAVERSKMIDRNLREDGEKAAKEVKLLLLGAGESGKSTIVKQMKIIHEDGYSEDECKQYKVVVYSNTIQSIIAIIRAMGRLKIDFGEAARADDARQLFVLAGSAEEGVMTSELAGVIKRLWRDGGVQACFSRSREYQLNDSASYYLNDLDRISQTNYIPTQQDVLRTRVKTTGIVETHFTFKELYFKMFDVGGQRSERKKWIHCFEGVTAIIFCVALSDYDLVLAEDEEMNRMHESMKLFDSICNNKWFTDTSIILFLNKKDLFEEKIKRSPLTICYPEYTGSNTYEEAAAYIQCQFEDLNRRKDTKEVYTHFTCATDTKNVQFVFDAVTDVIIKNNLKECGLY
HCMV NEC inh: inhibitors of HCMV UL50-UL53 nuclear egress complex interaction; inhibition, % (concentration not given with the values); 0.15% of 190,000 active; HTRF UL50-UL53 interaction, normalized percent inhibition; AID 1918969;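 active means both replicates at 50% or more, plus weaker picks with an unusually low signal ratio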;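 further: stock transfer was 100 nL into about 20 µL; 0% = negative control wells and 100% = wells with untagged competitor protein; inactives centre near -12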
Sa growth inh: S. aureus growth inhibition | S. aureus RN4220 growth, OD600, 20 h, 42 °C; active compounds read low | 0.53% of 170,000 active | relative growth, % (test concentration not listed) | AID 720641;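 active means growth at 42 °C up to 50% and 20 or more points under that at 30 °C, or under 10% at both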;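 further: 300 nL library stock went into each well; scaled to the means of positive and negative controls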
Sa growth inh second temp: second read-out of Sa growth inh, no call of its own (marks repeat the call); relative growth, %; measured here: growth at 30 °C;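 optical density after 20 h as mean of two plates; 100% = untreated growth and lower means inhibition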
* marks the source's active call; other numbers are inactive results; / = no result given. Hits appear at their usual frequency; 0.83% or so of the library scored in one or more.

SMILES | GIV Gai3 FP | HCMV NEC inh | Sa growth inh | Sa growth inh second temp
O=S(=O)(c1ccc(F)cc1)c1nc(-c2ccc(Cl)cc2)oc1NC1CC1 | 103 | -15 | / | /
CC(=O)c1cc(-c2ccccc2)n(CCC(=O)NCCc2ccccc2)c1C | 106 | / | 119 | 98
FC(F)(F)C1(C(F)(F)F)N=C2C=CC=CN2C(c2ccccc2)=N1 | 100 | / | 82 | 90
Cn1c(=O)[nH]c2c(nc(-c3ccccc3)n2C)c1=O | / | 3 | 102 | 96
Cc1cc(C)c2c(-n3cccc3)nn(Cc3ccc(C(=O)N4CCCC4)cc3)c2n1 | 104 | -29 | 88 | 83
COc1cc2c(cc1OC)C(COc1cc(C)cc(C)c1)N(C(=O)Cc1cccs1)CC2 (stereo unspecified) | 107 | / | 98 | 78
CCOc1cc(CNC2CCN(Cc3ccccc3)C2)ccc1OCC(=O)N(C)C (stereo unspecified) | / | -14 | 93 | 84
Cc1cccn2c(=O)c(/C=C3\SC(=S)N(CC4CCCO4)C3=O)c(N3CCN(C)CC3)nc12 (stereo unspecified) | -30* | -82 | / | /
Cc1ccc(CCNC(=O)c2cccc(Nc3nc4ccccc4nc3-n3nc(C)cc3C)c2)cc1 | 109 | -5 | 92 | 89
Cc1ccc(C(=O)Nc2c3c(nn2-c2ccccc2)CSC3)cc1 | 99 | / | 100 | 77
Cc1cccc(C)c1NC(=O)CCN1CCCCC1 | 103 | 2 | 110 | 97
Cn1nnnc1SCC(=O)Nc1ccc2nc(SCc3ccccc3Cl)sc2c1 | 101 | -20 | / | /
CN(C)c1ccc(C(=O)OCc2cc(=O)oc3cc(O)ccc23)cc1 | / | -12 | 100 | 93
COc1cccc(NC(=O)N(Cc2c[nH]c3ccccc23)C2CCCCC2)c1 | 102 | -15 | 106 | 89
N=C1C(c2nc3ccccc3s2)=C(O)CN1c1cccc(C(=O)NCCc2c[nH]c3ccccc23)c1 | 104 | -3 | / | /
Cc1cc(=O)[nH]c(Nc2ccc(C)c(Cl)c2)n1 | 101 | -23 | / | /
CN(c1nc(-c2ccccc2)cs1)C1CCS(=O)(=O)C1 (stereo unspecified) | 101 | 6 | 96 | 92
CCCCN(C)CCNC(=O)c1c(C)oc2ncnc(N3CCOCC3)c12 | 100 | / | 73 | 86
CC(=O)OC(C)(C)C(=O)/C=C/c1ccccc1 | 94 | -4 | 130 | 76
O=C(O)CN(Cc1ccccc1)S(=O)(=O)c1ccccc1 | / | -1 | 102 | 93
Cc1oc2ncn3nc(-c4ccc(F)cc4)nc3c2c1C | 99 | -20 | / | /
O=C1/C(=C/c2ccc(-c3ccccc3[N+](=O)[O-])o2)NC(=S)N1c1ccccc1 | 111 | -40 | / | /
O=S1(=O)C=C(N2CCOCC2)CC1 | 100 | -20 | 83 | 81
CCn1ncc(C2=NOC(C(=O)N3CCN(c4ccccc4)CC3)C2)c1C (stereo unspecified) | 101 | / | 106 | 89
COc1ccc(O)c(C2SCC(=O)N2Cc2ccccc2)c1 (stereo unspecified) | / | -18 | 106 | 86
O=C(Nc1ccc(O)cc1)C1Cc2ccccc2CN1S(=O)(=O)c1cccs1 (stereo unspecified) | 100 | -32 | 94 | 80
CSCCC(=O)Nc1ccc(Oc2cccc(C)c2)cc1 | / | 11 | 133 | 101
CCn1cc(C(=O)N2CCN(c3ccc(OC)cc3)CC2)c(=O)c2cc(S(=O)(=O)N3CCOCC3)ccc21 | 104 | 22 | 98 | 93
Cc1ccc(C(C)(C)C)c(OCCC#N)c1 | / | -24 | 98 | 95
Cc1cc(C)nc(SCCCn2c(N3CCC(C)CC3)nc3c2c(=O)[nH]c(=O)n3C)n1 | 103 | -10 | / | /
CCCCN(C)CCNC(=O)C1CCCN(S(=O)(=O)c2cccc3nsnc23)C1 (stereo unspecified) | 101 | -85 | 104 | 94
NC1=NC(=O)/C(=C/c2cc(Br)ccc2OCc2ccccc2)S1 | 102 | -15 | / | /
COC(=O)c1cc(NC(=O)c2sc3ccccc3c2Cl)cc(C(=O)OC)c1 | 112 | -34 | 109 | 87
O=C(O)CO/N=C/c1ccccc1 | / | -4 | 101 | 90
Cc1ccc(CNC(=O)CSCc2nc3cccnc3n2C2CCCCC2)cc1 | 113 | -7 | / | /
O=C(C1CCC1)N1CCN(c2cc(C(F)(F)F)nc3ccccc23)CC1 | 100 | -44 | 91 | 86
O=C(NCC1CCCO1)c1cc(-c2ccccc2)c(N2CCCCC2)s1 (stereo unspecified) | 102 | 35* | / | /
CCCOC(=O)c1ccc(NC(=O)Cc2csc(C)n2)cc1 | 106 | 11 | 106 | 90
COc1ccc(-c2noc(CSc3nnc(-c4ccncc4)n3-c3ccc(C)c(C)c3)n2)cc1 | 104 | -1 | 114 | 95
Cc1cc(C)c2c(c1C(=O)O)CC(C)(C)C2=O | 108 | -8 | 103 | 94
COc1ccc(OC)c(NC(=O)CSc2ccc(-c3cccs3)nn2)c1 | 101 | / | 102 | 88
CCCN1Cc2cccc(C(=O)Nc3cc(C)cc(C)c3)c2C1=O | 97 | -26 | 99 | 89
CC(C(=O)NCc1ccc(F)cc1)n1sc2ccccc2c1=O (stereo unspecified) | 97 | -19 | 100 | 97
CC(Nc1ncnc2ccccc12)c1ccccc1 (stereo unspecified) | / | -10 | 95 | 67
O=C(CN1CCN(c2cccc(Cl)c2)CC1)c1ccc(Cl)cc1 | 110 | -6 | 122 | 93
Nc1nccc(-c2ccc(Sc3ccccc3)cc2)n1 | 98 | -20 | / | /
CCC(c1nnnn1Cc1ccccc1)N1CCN(c2cccc(C)c2C)CC1 (stereo unspecified) | 99 | 13 | 89 | 110
CCOc1cccc(CC(=O)NCc2ccc3c(c2)CCN3C(C)=O)c1OCC | 110 | / | 140 | 89
CN(C(=O)c1cccc(C#N)c1)c1nnc(C2CCOC2)s1 (stereo unspecified) | 105 | 12 | 80 | 75
Cc1ccc(-n2c(SCC(=O)NC3CC3)nc3ccccc3c2=O)c(C)c1 | / | -32 | 120 | 101
CN(C)c1ccc(CC2C(=O)N(C)c3ccc(Br)cc32)cc1 (stereo unspecified) | 104 | -18 | / | /
Cc1ccc(-c2csc3nnc(C(F)(F)F)n23)cc1 | 99 | 1 | 100 | 104
O=C(Cc1ccc(Cl)cc1)NCC(c1cccs1)S(=O)(=O)c1ccc(F)cc1 (stereo unspecified) | 97 | / | 103 | 87
O=S(=O)(NCc1ccccc1Cl)c1ccc(N2CCCCS2(=O)=O)cc1 | 110 | / | 145 | 97
COc1ccc(OC)c(NC(=O)CCc2c(C)nc3c(-c4ccccc4)c(C)nn3c2C)c1 | 101 | -5 | 102 | 89
Oc1ccc(Nc2nc(N3CCOCC3)c3ccccc3n2)cc1 | 96 | / | 94 | 59
CS(=O)c1sc(C(=O)OCc2ccccc2)c2c1C(=O)CC(C)(C)C2 (stereo unspecified) | 100 | -33 | -0.7* | -0.6*
Cc1cc(OC(=O)c2ccccc2)n[nH]1 | / | -13 | 103 | 93
O=C(Nc1ccc(Cl)c(-c2nc3ncccc3o2)c1)c1ccc(-c2cccc([N+](=O)[O-])c2)o1 | 100 | -11 | / | /
CCOC(=O)C1=C(C)NC(SCC(=O)O)=NC1c1ccccc1 (stereo unspecified) | / | -5 | 78 | 87

(further entries)
SMILES | GIV Gai3 FP | HCMV NEC inh | Sa growth inh | Sa growth inh second temp
O=c1nccc(C(F)(F)C(F)(F)F)[nH]1 | / | -54 | 77 | 89
O=c1c(-c2cc(Br)cc3c2OCOC3)coc2ccccc12 | / | 31 | 98 | 82
O=C1Nc2ccccc2/C1=N/c1sc2c(c1C(=O)NCCc1ccccc1)CCCC2 | / | 4 | 82 | 87
C=C(C)CN=c1scc(-c2ccco2)n1/N=C/c1cccnc1 | / | 1 | 108 | 90
O=C(O)C[C@H](O)C[C@H](O)/C=C/c1c(C2CC2)nc2ccccc2c1-c1ccc(F)cc1 | / | -72 | 101 | 93
Cc1cc(C)c(S(=O)(=O)NCc2cn3ccsc3n2)c(C)c1 | 99 | -32 | / | /
COc1cccc2c1Oc1nc(-c3ccccc3)nc(SCC(=O)N(C)c3ccccc3)c1C2 | -21* | / | 94 | 91
CC1=C(C(=O)OCc2ccco2)C(c2cc3c(cc2Br)OCO3)NC(=O)N1 (stereo unspecified) | 107 | -1 | / | /
COC(=O)c1ccc(OCCOc2ccc(C(=O)OC)cc2)cc1 | 109 | 3 | 99 | 97
CC(=O)Oc1ccc(OC(C)=O)c(C2=C3C(=O)N(CCc4c[nH]c5ccccc45)CC(=O)N3CCC2)c1 | 110 | -27 | 74 | 33
Cn1c(=O)c2c(nc(NC3CCCCC3)n2Cc2ccc(Br)cc2)n(C)c1=O | 103 | -24 | / | /
CCc1ccc(NC(=O)c2nnn(Cc3cccc(C(F)(F)F)c3)c2N)cc1 | 100 | 3 | 103 | 95
Cc1ccc(CN2C(=O)c3ccccc3Sc3ccc(C(=O)N4CCOCC4)cc32)cc1 | 100 | / | 100 | 75
CC(C)(C#N)Nc1ccccc1 | 108 | -11 | 84 | 94
O=C(CSc1ccc2nc(-c3ccccc3)cn2n1)Nc1cccc(F)c1 | 101 | / | 85 | 81
O=C(CSc1nnc(-c2c[nH]c3ccccc23)n1CC1CCCO1)c1ccc(Cl)s1 (stereo unspecified) | / | -66 | 82 | 72
Cc1ccc(S(=O)(=O)N(CCC#N)c2ccc(Br)cc2)cc1 | / | -16 | 112 | 90
CC(=O)NC(O)C(=O)c1ccccc1 (stereo unspecified) | 104 | -26 | 86 | 85
N#C/C(=C\c1cccnc1)c1cccc(C(F)(F)F)c1 | 97 | 0 | 108 | 92
CCN(CC)CCN=Cc1c(O)n(-c2ccccc2C)c(=O)[nH]c1=O | 112 | / | 78 | 109
NN/C(=N\S(=O)(=O)c1ccccc1)NNc1ccccc1 | 105 | 4 | 109 | 101
O=C(COc1ccccc1)Nc1noc(-c2ccc(Cl)cc2)n1 | 100 | 14 | / | /
CC(=O)Oc1ccc(-n2c(C)cc(/C=C3\C(=O)NC(=S)N(c4ccc(C)cc4)C3=O)c2C)cc1 | 113 | -23 | / | /
COc1ccc(CNC(=O)C(CCSC)NS(=O)(=O)c2ccc3c(c2)oc(=O)n3C)cc1 (stereo unspecified) | 99 | / | 99 | 88
CCOC(=O)c1c(-c2ccccc2)oc2cc(Br)c(OC(C)C(=O)OC)cc12 (stereo unspecified) | 104 | 6 | / | /
Cc1cc(F)ccc1S(=O)(=O)NCC1CC2CCC1C2 (stereo unspecified) | 100 | / | 96 | 83
Cc1ccc(-n2cc(-c3ccccc3)nc2SCC(=O)NCCc2ccccc2)cc1 | 102 | / | 93 | 99
COc1ccc(N2CCN(S(=O)(=O)c3c(C)noc3/C=C/N3CCOCC3)CC2)cc1 | 98 | 6 | 97 | 102

In the list so far, these contain a nitro group on carbon.
SMILES | GIV Gai3 FP | HCMV NEC inh | Sa growth inh | Sa growth inh second temp
O=C1/C(=C/c2ccc(-c3ccccc3[N+](=O)[O-])o2)NC(=S)N1c1ccccc1 | 111 | -40 | / | /
O=C(Nc1ccc(Cl)c(-c2nc3ncccc3o2)c1)c1ccc(-c2cccc([N+](=O)[O-])c2)o1 | 100 | -11 | / | /

Gathered by group: those above with an NH in an aromatic ring
SMILES | GIV Gai3 FP | HCMV NEC inh | Sa growth inh | Sa growth inh second temp
Cn1c(=O)[nH]c2c(nc(-c3ccccc3)n2C)c1=O | / | 3 | 102 | 96
COc1cccc(NC(=O)N(Cc2c[nH]c3ccccc23)C2CCCCC2)c1 | 102 | -15 | 106 | 89
N=C1C(c2nc3ccccc3s2)=C(O)CN1c1cccc(C(=O)NCCc2c[nH]c3ccccc23)c1 | 104 | -3 | / | /
Cc1cc(=O)[nH]c(Nc2ccc(C)c(Cl)c2)n1 | 101 | -23 | / | /
Cc1cc(C)nc(SCCCn2c(N3CCC(C)CC3)nc3c2c(=O)[nH]c(=O)n3C)n1 | 103 | -10 | / | /
Cc1cc(OC(=O)c2ccccc2)n[nH]1 | / | -13 | 103 | 93
O=c1nccc(C(F)(F)C(F)(F)F)[nH]1 | / | -54 | 77 | 89
CC(=O)Oc1ccc(OC(C)=O)c(C2=C3C(=O)N(CCc4c[nH]c5ccccc45)CC(=O)N3CCC2)c1 | 110 | -27 | 74 | 33
O=C(CSc1nnc(-c2c[nH]c3ccccc23)n1CC1CCCO1)c1ccc(Cl)s1 (stereo unspecified) | / | -66 | 82 | 72
CCN(CC)CCN=Cc1c(O)n(-c2ccccc2C)c(=O)[nH]c1=O | 112 | / | 78 | 109
